2A firefly: Primary qHTS Assay for Foot and Mouth Disease Virus Antivirals against NCGC Sytravon and CBC Compound Libraries: Firefly Luciferase Signal. AID 1745856, 2022. HEK cells with a luciferase reporter of 2A StopGo recoding. Potency, µM (highest dose often 57.5 µM), for inactives: at the highest dose signal change, negative = less light. hit rate 0.23% among 120,000; active = well fitted falling curve with a large enough effect; inconclusive = small, poorly fitted or top-dose-only effect; inactive = no such curve, though single readings can be large or run the other way; further: nearly all actives have a fitted effect of over 60% in size; overnight with compound
StopGo RLuc: Primary qHTS Assay for Foot and Mouth Disease Virus Antivirals against NCGC Sytravon and CBC Compound Libraries: Renilla Luciferase Signal; HEK cells with a luciferase reporter of 2A StopGo recoding; hit rate 0.32% among 120,000; Potency, µM (highest dose often 57.5 µM), for inactives: top-dose signal change, negative = less light; AID 1745857, 2022; active means well fitted falling curve with a large enough effect; inconclusive means small, poorly fitted or top-dose-only effect; inactive means no such curve, though single readings can be large or run the other way; further: nearly all actives have a fitted effect of over 55% in size; overnight with compound
Active calls of the source: *; ? = inconclusive; & = joins results of further samples; [ ] = dose if it differs, or a comment. On the % scale 0 is the no-effect control and ±100 the full control effect; potency means the concentration at half of the fitted maximal effect. A portion of the library; the hit share may differ from the screen's.

SMILES	2A firefly	StopGo RLuc
CC(CNC(=O)Cc1n[nH]c(=O)c2ccccc12)N1CCOCC1 (stereo not given)	-4%	-8%
CC(C)(C)c1ccc(C(=O)Nc2ccc(NC(=O)c3ccc(C#N)cc3F)cc2)cc1	1%	-3%
Cc1cccc(C)c1NC(=O)CN(Cc1ccc(Br)cc1)S(=O)(=O)c1ccccc1	-11%	23%
CCOC(=O)c1cnc(SCC(=O)Nc2ccc(Br)cc2C)nc1N	0%	20%
CC(=O)Nc1ccc(NC(=O)CSc2nnc3c4cc(Br)ccc4n(C)c3n2)cc1	-14%	-7%
COC(=O)[C@]12C[C@H](CC(=O)NCc3cccs3)C(=O)N(Cc3ccc(Cl)cc3Cl)C1=C[C@H](COCc1ccccc1)O[C@@H]2C	-4%	0%
O=C(CSCc1ccccc1Cl)NCc1ccc(Cl)c(Cl)c1	65%[activator]	55%[activator]
Cc1ccc(Cl)cc1NC(=O)Nc1cc2c(cc1Oc1ccccc1)n(C)c(=O)n2C	1%	8%
Cc1ccc(OCC(=O)Nc2ccc3nn(-c4ccc(Cl)cc4)nc3c2)cc1	0%	-7%
CC(C)c1ccc(NC(=O)c2cc(S(=O)(=O)N(C)C3CCCCC3)ccc2F)cc1	5%	7%

Further records
SMILES	2A firefly	StopGo RLuc
COc1ccc(Oc2coc3cc(OC(=O)c4ccc(F)cc4)ccc3c2=O)cc1	63%[activator]	4%
Cc1cc(N)nc(SC(C)C(=O)c2ccc(F)cc2)n1 (stereo not given)	10%	1%
Clc1cc(CSc2nnnn2-c2ccccc2)cc2c1OCCCO2	?	?
COc1ccc(-c2nc(C)c(CCNC(=O)c3ccco3)s2)cc1	208%[activator]	11%
O=C(CSc1nccn1Cc1ccccc1)Nc1ccc2c(c1)OCCO2	72%[activator]	40%[activator]
COC(=O)c1cccc(OS(=O)(=O)c2ccc3oc(=O)ccc3c2)c1	45%[activator]	5%
COc1ccc(Cl)cc1-n1nnc(-c2nc(-c3cc(OC)c(OC)c(OC)c3)no2)c1C	-5%	4%
COc1cccc(OCCCOc2ccc(Cl)cc2/C=N/NC(N)=O)c1	30%	11%
CN(C)CCNC(=O)c1ccc2nc(CCc3ccccc3)oc2c1	128%[activator]	-22%
CCCc1nnc2sc(-c3c[nH]c4ccccc34)nn12	18%	1%

Following part.
SMILES	2A firefly	StopGo RLuc
CC(C)COc1ccc(C(=O)Nc2cc3nn(-c4ccccc4)nc3cc2Cl)cc1	-10%	-11%
CCOc1cc(CNC(=O)c2ccc(C)c(NC(=O)c3nsc4ccccc34)c2)ccc1OC	32%[activator]	26%
COc1ccc2c(c1)c1c(c(=O)n(-c3cc(Cl)ccc3C)c(=O)n1CC(=O)N1CCCC1)n2C	-12%	-6%
CCOc1cc(CNCCc2c[nH]c3ccc(OC)cc23)ccc1O	-6%	-13%
CC(=O)c1ccc(NC(=O)Cn2c(=O)cc(C)c3c(C)nn(-c4cccc(F)c4)c32)cc1	-21%	-19%
O=C(Nc1ccc2c(c1)CCCN2C(=O)c1cccs1)c1ccccc1C(F)(F)F	?	?
CCc1c(C)sc(NC(=O)c2ccc(C(C)(C)C)cc2)c1C#N	?	8%
CNC(=S)NNC(=O)c1ccc(C)s1	23%	28%
COc1cc(C2CC(=O)Nc3c(-c4ccccc4)nsc32)cc2c1OCO2 (stereo not given)	-23%	-9%
N#C/C(=C/c1ccccc1OCc1ccccc1C#N)c1ccc(Cl)cc1	-4%	-10%

The listing continues.
SMILES	2A firefly	StopGo RLuc
N#CC1=C(N)OC2=C(C(=O)CCC2)C1c1ccccc1OC(=O)N1CCOCC1 (stereo not given)	8%	7%
Cc1cccc(NC(=O)Cc2ccc(-n3c(C)nc4cccnc43)cc2)c1C	-29%	-29%
COc1ccc(C(=O)/C=C/c2ccc(F)c(F)c2)cc1CSCC(=O)O	0%	10%
O=C(CCn1nc(-c2ccc(Cl)cc2)c2ccccc2c1=O)Nc1ccc(OC(F)(F)F)cc1	3%	-2%
O=C(O)Cc1ccc2nc[nH]c2c1	-15%	10%
CCc1ccc(NC(=O)C(=O)NCC(c2ccc3c(c2)OCO3)N2CCOCC2)cc1 (stereo not given)	5%&-12%	-15%&-18%
COc1cccc(CNCc2c(C(=O)O)c(C)n(Cc3cc(C)ccc3C)c2C)c1OC	-15%	93%[activator]
Cc1coc2c(C)c3oc(=O)c(CCC(=O)NCCc4ccc(Cl)cc4)c(C)c3cc12	-7%	-6%
COc1ccc(-c2nc(CSCC(=O)NCCCN3CCOCC3)c(C)o2)cc1OC	7%	1%
OCc1c[nH]c2ccccc12	-4%[22.9 µM]	8%[114 µM]

More results:
SMILES	2A firefly	StopGo RLuc
O=CNC12CCC3CC(CC(C3)C1)C2	16%	12%
COc1ccc(-n2nc3cc(C)c(NC(=O)Cc4ccc(Cl)cc4)cc3n2)cc1	24%	2%
CC(=O)c1ccccc1OCc1ccccc1	35%[activator]	3%
CCCCC(=O)Nc1cccc(N)c1	13%	4%
CCOc1ccc(Oc2ccc(NC(=O)C3=NN(C4CCS(=O)(=O)C4)C(=O)CC3)cc2)cc1 (stereo not given)	-4%	10%
CCc1nnc(NC(=O)Cn2ccc3c(Cl)cccc32)s1	17%	-1%
CC(C)NC(=O)C(C)n1cnc2c1c(=O)n(C)c(=O)n2C (stereo not given)	-9%	-16%
O=C1COc2ccc(-c3csc(Nc4ccccc4)n3)cc2N1	29%	?
CC(CNC(=O)c1nccnc1N)c1ccccc1 (stereo not given)	39%[activator]	-4%
COc1ccccc1CNC(=O)CCc1c(C)c2ccc(O)c(C)c2oc1=O	-10%	12%

Additional structures follow:
SMILES	2A firefly	StopGo RLuc
CCOC(=O)c1ccc(S(=O)(=O)N2CCC3(CC2)NC(=O)c2ccccc2N3)cc1	6%	7%
COc1ccc2cc(CNC(=O)c3nccnc3N)ccc2c1	?	22µM*
CC(C)Oc1ccc(/C=C(/C#N)c2ccc(Cl)cc2)cc1Cl	1%	-8%
CCOc1ccccc1CNC(=O)c1cnc2sc(N3CCCC3)nn2c1=O	3%	-17%
Cn1c(=O)[nH]c(=O)c2c1nc(CN1CCN(Cc3ccccc3)CC1)n2CCCc1ccccc1	-4%	-11%
C#CCN1CCN(C(=O)Nc2ccc(F)cc2)CC1	10%	7%
COC(=O)c1ccc(Cl)c(NC(=O)C2CCN(S(=O)(=O)Cc3ccccc3)CC2)c1	12%	5%
COc1ccc(-c2c(C)c3ccc(O)c(CN4CCCC4)c3oc2=O)cc1	-16%	-4%
CS(=O)(=O)N1CCCCC1C(=O)NC1CCCC1 (stereo not given)	-14%	-9%
O=C(Nc1cccc2[nH]ccc12)C(=O)NC1CCCCCC1	181%[activator]	-1%

Whole records, looked up by structure. Order of values: 2A firefly	StopGo RLuc
`COc1ccc(Cl)cc1-n1nnc(-c2nc(-c3cc(OC)c(OC)c(OC)c3)no2)c1C` in the list: -5%	4%
`COc1cccc(CNCc2c(C(=O)O)c(C)n(Cc3cc(C)ccc3C)c2C)c1OC` in the list: -15%	93%[activator]
`Cc1cc(N)nc(SC(C)C(=O)c2ccc(F)cc2)n1` (stereo not given) in the list: 10%	1%
`O=C(CSc1nccn1Cc1ccccc1)Nc1ccc2c(c1)OCCO2` in the list: 72%[activator]	40%[activator]
`CCc1c(C)sc(NC(=O)c2ccc(C(C)(C)C)cc2)c1C#N` in the list: ?	8%

Going on with the list:
SMILES	2A firefly	StopGo RLuc
Cc1cccc(S(=O)(=O)Nc2cccc(-c3ccc(N4CCCCC4)nn3)c2)c1	42%[activator]	136%[activator]
OCC1CCCN1Cc1ccccc1 (stereo not given)	0%	-1%
CCOc1cc(C#N)c(NC(=O)c2ccc(OC)c(S(=O)(=O)N3CCCCC3)c2)cc1OCC	-12%	24%
Cc1ccc(C)n1-c1nnc(N2CCC(C(=O)NCc3ccccc3Cl)CC2)s1	0%	-11%
COc1cc(C(=O)NCc2nc(-c3ccc(Cl)cc3)no2)cc(OC)c1OC	33%[activator]	52%
Cc1ccc(C(=O)NCCCS(=O)(=O)Cc2ccccc2)cc1	12%	0%
O=C(CN1CCN(Cc2ccc3c(c2)OCO3)CC1)N1c2ccccc2Sc2ccccc21	-11%[11.5 µM]	15%
CC(C)c1cccc(C(C)C)c1NC(=O)c1nn(C)c(=O)c2ccccc12	0%	7%
Cc1ccc(C2CCN(C(=O)c3cnn(-c4ccccc4Cl)c3C3CCN(C(=O)OC(C)(C)C)CC3)C2)cc1 (stereo not given)	-16%	-3%
O=C(CCc1ncc(-c2c(F)cccc2F)o1)NCC1(N2CCOCC2)CCCCC1	-14%	-21%

The list continues:
SMILES	2A firefly	StopGo RLuc
CCc1ccc(N(C)S(=O)(=O)c2ccc3[nH]cc(C(=O)NCC4CCCO4)c(=O)c3c2)cc1 (stereo not given)	?	-27%
S=C(NCCCCc1ccccc1)Nc1cccc(Cl)c1Cl	0%	100%[activator]
CC(=O)c1c[nH]c(C(=O)NC(c2cccc(F)c2)c2nccn2C)c1 (stereo not given)	68%[activator]	49%[activator]
Cc1ccc(NC(=O)CSc2nc(=O)n(Cc3cccnc3)c3c2CCC3)cc1F	-6%	3%
O=[N+]([O-])c1cccc2ccc(/C=C/c3ccccc3OC(F)F)nc12	58%[activator]	-4%
COc1ccc(CNC(=O)CN2C(=O)COc3ccc(S(=O)(=O)NC4CCCC4)cc32)cc1	16%	91%[activator]
O=C(O)c1ccc2[nH]ccc2c1	-4%	-6%
N#Cc1cccnc1N1CCN(C(C(=O)O)c2c[nH]c3ccc(Br)cc23)CC1 (stereo not given)	7%	-3%
CCC12CN3CC(C)(CN(C1)C3c1ccccc1C)C2=O (stereo not given)	-5%	-4%
N=C(N)C1CC1	9%	-1%

The list goes on.
SMILES	2A firefly	StopGo RLuc
CCOc1ccc(NC(=O)CSc2nc3c(oc4ccccc43)c(=O)n2-c2ccccc2C)cc1	1%	-8%
COc1ccccc1CNc1nc(-c2ccc(CNC(C)=O)cc2)cs1	42%[activator]	-7%
COc1cc(C(=O)NCc2nc3cccnc3n2Cc2ccc(C)cc2)cc(OC)c1OC	-11%	-6%
O=C(O)CC(NC(=O)c1ccc(-c2ccc(F)cc2)s1)C(=O)O (stereo not given)	0%	-11%
COc1ccc(/C=C/C(=O)NC2CCCCCCCCCCC2)cc1	-10%	-12%
CCOc1ccccc1NC(=O)c1cccc2c1C(=O)N(C1CCCCC1)C2	-14%	-6%
CCCCCC1CCC(c2ccc(OC(=O)c3ccco3)cc2)CC1 (stereo not given)	12%	3%
Cc1ccc(C(=O)NC(Nc2cccc(C(F)(F)F)c2)C(Cl)(Cl)Cl)cc1 (stereo not given)	?	0%
C#CCOc1ccc2ccccc2c1/C=C(\C#N)c1ccc(Cl)cc1	19%	24%
N#CCSc1sc(=S)sc1SCC#N	?	?

(next part)
SMILES	2A firefly	StopGo RLuc
Cc1ccc(OCc2ccc(-c3nc(C#N)c(NCCCN(C)C)o3)o2)cc1	53%[activator]	-3%
O=C(COC(=O)c1ccco1)c1ccc2c(c1)OCCCO2	0%	4%
COc1ccccc1C(=O)N1CCC(c2noc(-c3ccc(S(=O)(=O)N4CCCC4)cc3)n2)CC1	?	?
COc1ccc(-c2cc(-c3ccc(F)cc3)nc3c2COc2ccc(F)cc2-3)cc1	-6%	-12%
CCCCc1cc(=O)oc2c(C)c(OCC(=O)NCCN3CCOCC3)ccc12	0%	6%
O=C(NCCc1ccccc1)c1ccc2c(c1)N(Cc1ccc(F)cc1)C(=O)c1ccccc1S2(=O)=O	0%	36%[activator]
COc1ccc(-c2ocnc2C(=O)NCc2cc(OC)c(OC)c(OC)c2)cc1	?	?
O=C(c1cccs1)N1CCCc2cc(NS(=O)(=O)c3ccc(Br)cc3)ccc21	?	29%
Cc1ccccc1/C=N/Nc1ccc(S(=O)(=O)Nc2ccc(Cl)cc2)cc1[N+](=O)[O-]	5%	233%[activator]
CCC(Sc1nccn1-c1cccc(F)c1)C(=O)Nc1cc(C)on1 (stereo not given)	5%	-5%

Carrying on.
SMILES	2A firefly	StopGo RLuc
Cc1cc(NC(=O)C(C)OC(=O)c2cc3c(s2)CCCC3)no1 (stereo not given)	48%[activator]	23%
CN1CCN(c2ncc3c(n2)CCN(Cc2ccc(Br)s2)C3)CC1	-14%	-9%
O=C(CSc1ncnc2ccccc12)Nc1ccccc1	51%[activator]	-6%
CCOc1ccc(CCNC(=O)CN2C(=O)c3cccnc3Oc3ccc(Cl)cc32)cc1	-7%	0%
COc1ccc(OC)c(CCNCc2c(C(=O)O)c(C)n(Cc3ccc(F)cc3Cl)c2C)c1	-27%	6%
CC(C)N(C)S(=O)(=O)c1ccc(Cl)c(C(=O)NCc2ccnc(N3CCCC3)c2)c1	-35%	-21%
Cc1ccc(NC(=O)Nc2cc3c(cc2N2CCCCC2)n(C)c(=O)n3C)cc1Cl	-5%	-6%
COc1ccc(C(=O)OCC(=O)N2c3ccccc3Sc3ccccc32)cc1OC	-8%	3%
COc1ccc(S(=O)(=O)NCc2cccn2Cc2cccc(C)c2)cc1	-2%	283%[activator]
Cc1ccc(CN(C)C(=O)Cc2c[nH]c3ccccc23)cc1	0%	58%[activator]
COC(=O)c1cccc(OC(=O)c2ccccc2C)c1	19%	1%
O=Cc1cc(Cc2ccccc2Cl)ccc1O	19%	4%
Cc1cccc(NC(=O)C2CCN(S(=O)(=O)c3c(C)noc3/C=C/c3ccco3)CC2)c1C	-19%	-12%
